Source: PubChem (National Center for Advancing Translational Sciences (NCATS))
YjeE inh = qHTS Assay for Inhibitors of YjeE. Potency, µM. tRNA threonylcarbamoyladenosine biosynthesis protein TsaE (Escherichia coli (strain …. AID 605, 2007. 0.05% of 71,000 active. purified YjeE, fluorescence polarisation of a bound ADP probe; active = well fitted falling curve; inconclusive = weaker or top-dose-only fall, or a rising curve; inactive = flat or poorly fitted curve;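 further: top concentration of the series not given in the record; excess ADP was the control for the full effect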
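Fluorescence polarization of a BODIPY Texas Red–ADP probe (2 uM) bound to purified YjeE (10 uM) was read after 15 min room-temperature incubation with compounds. Loss of polarization marks inhibitors; ADP serves as titrated control.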
Bst PK mod = Pyruvate Kinase; partly purified Bacillus stearothermophilus pyruvate kinase, luminescence ATP production; ribose 5-phosphate activator present at AC10; 1.2% of 51,000 active; AID 361, 2006; Potency, µM; in the data active means potency below about 11 µM; inconclusive means mostly about 12 µM to 25 µM; inactive means weaker than that;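 the screen sought inhibitors and activators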;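 further: potency means the concentration at half of the fitted maximal effect; scaled between full activation by ribose 5 phosphate and full inhibition by luteolin; about four in five hits inhibit and the cells do not say which; series up to 57 µM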
Numbers without * were called inactive; i = inactive; ? = inconclusive; . = not tested or not shown. A portion of the library; the hit share may differ from the screen's.

YjeE inh	Bst PK mod	Molecule
.	>25.6	COc1ccc(C(=O)C(CN2CCCC2)c2ccccc2)cc1 (centres undefined)
i	>57	CCOc1cc(C)nc(N2CCC(C(=O)Nc3ccccc3OCC)CC2)n1
i	>57	COc1ccc(S(=O)(=O)NC(C)C(=O)Nc2cccc(C(C)=O)c2)cc1 (centres undefined)
i	>57	O=C(Nc1ccccc1N1CCOCC1)c1ccc2c(c1)C(=O)N(Cc1ccncc1)C2=O
i	.	O=C(COc1ccc(F)cc1)Nc1nccs1
i	>57	CCOC(=O)C(NC(=O)Nc1ncccn1)(Oc1ccccc1)C(F)(F)F (centres undefined)
i	>57	C=CCSc1nnc(Cc2cc(=O)[nH]c(=O)[nH]2)n1-c1cc(C)ccc1C
i	.	Cc1c(-c2ccc(Cl)cc2)noc1C1CCN(CCc2ccccc2)CC1
i	.	COc1cc(NC(=O)c2cc(C(C)C)on2)cc(OC)c1OC
i	>57	C=CCn1cc(C(=O)NCc2ccco2)c(=O)c2cc(S(=O)(=O)N3CCCCCC3)ccc21
i	>57	O=C(CNC(=O)c1cccs1)NCCN1CCN(Cc2ccccc2)CC1
.	>25.6	CCN(CC)CCN1C(=O)C(=O)/C(=C(/O)c2ccc(Cl)cc2)C1c1ccncc1 (centres undefined)
i	>57	Cc1cc(C(=O)CN2C(=O)NC(c3ccccc3)(c3ccccc3)C2=O)c(C)n1Cc1ccco1
i	>57	Cc1onc(-c2ccccc2Cl)c1C(=O)NCc1ccccn1
i	>57	Cc1nc(SCC#N)c2c3c(sc2n1)CCC3
i	>57	S=C1SCN(CCN2CCOCC2)CN1Cc1ccccc1
i	.	COc1ccc(C)cc1S(=O)(=O)N1CCN(S(=O)(=O)c2cc(C)ccc2OC)C(C)C1 (centres undefined)
i	>57	COc1ccc(NC(=O)CSc2[nH]c(=O)cc(C)c2C#N)cc1OC
i	>57	N#CC1=C(N)Oc2c(oc(CO)cc2=O)C12C(=O)Nc1ccc(Cl)cc12 (centres undefined)
.	>25.6	CC(C)Sc1nc(N2CCCC2)c2c(c1C#N)CC(C)(C)OC2
i	>57	Cc1cc(C)cc(NC(=O)C2CCCN(c3nccc(C)n3)C2)c1 (centres undefined)
i	.	O=C(Nc1ccc(Cl)c(Cl)c1)N1CC=CCC1
i	>57	C[C@H](NC(=O)Nc1ccccc1F)C(=O)O
i	.	CCOC(=O)/C(C#N)=C1/C=CN(c2ccccc2)C=N1
i	.	CCc1n[nH]c2c1/C(=N\O)CC(C)(C)C2

Structural class: the compounds so far with a cyano group.
YjeE inh	Bst PK mod	Molecule
i	>57	Cc1nc(SCC#N)c2c3c(sc2n1)CCC3
i	>57	COc1ccc(NC(=O)CSc2[nH]c(=O)cc(C)c2C#N)cc1OC
i	>57	N#CC1=C(N)Oc2c(oc(CO)cc2=O)C12C(=O)Nc1ccc(Cl)cc12 (centres undefined)
.	>25.6	CC(C)Sc1nc(N2CCCC2)c2c(c1C#N)CC(C)(C)OC2
i	.	CCOC(=O)/C(C#N)=C1/C=CN(c2ccccc2)C=N1

A draw from above in order of length of the SMILES, falling:
YjeE inh	Bst PK mod	Molecule
i	>57	N#CC1=C(N)Oc2c(oc(CO)cc2=O)C12C(=O)Nc1ccc(Cl)cc12 (centres undefined)
i	.	CCOC(=O)/C(C#N)=C1/C=CN(c2ccccc2)C=N1
.	>25.6	COc1ccc(C(=O)C(CN2CCCC2)c2ccccc2)cc1 (centres undefined)
i	>57	S=C1SCN(CCN2CCOCC2)CN1Cc1ccccc1
i	>57	Cc1nc(SCC#N)c2c3c(sc2n1)CCC3

More entries
YjeE inh	Bst PK mod	Molecule
i	.	Cc1ccc(N(CC(=O)NCc2ccc3c(c2)OCO3)S(=O)(=O)c2c(C)noc2C)cc1
i	.	COc1ccccc1-c1nc(-c2ccc(C)nc2OC)no1
i	>57	Cc1ccc(C)c(OCCCC(=O)Nc2ccc(N3CCOCC3)cc2)c1
i	.	C=C(N(C)C)[C@]1(C)C[C@H]1[C@H](NC(=O)CNC(=O)OCc1ccccc1)c1ccccc1
i	.	O=S(=O)(NCCc1csc(-c2cccnc2)n1)c1ccc2c(c1)OCCO2
i	.	CN(C)c1ncnc2ccc(-c3ccccc3C#N)cc12
i	>57	COc1cc(OC)c(NC(=O)c2c(-c3ccccc3)noc2C)cc1Cl
i	>57	Cc1cc(NC(=O)C2CCN(S(=O)(=O)Cc3ccccc3)CC2)ccc1-n1cnnn1
i	>57	CCOc1cc2oc(=O)c3c(c2cc1Cl)CCC3
i	>57	CCOC(=O)C1CCN(C(=O)c2n[nH]c(=O)c3ccccc23)CC1
i	>57	CC(C)(C)CC(=O)Nc1nnc(-c2cccs2)s1
i	>57	O=c1[nH]c(CSc2nnc(NCCCN3CCOCC3)s2)nc2cc(Cl)ccc12
i	>57	O=C(CSc1nc2ccccc2c(=O)n1CCC(=O)N1CCCCC1)NCc1ccccc1
i	.	CCCc1cc(=O)oc2cc(C)cc(OC(=O)c3ccco3)c12
.	>25.6	O=C(Oc1cccnc1)c1ccco1
.	>11.4	N#CC1=C(N)OC2=C(C(=O)CCC2)C1CCc1ccccc1 (centres undefined)
.	?	CC(=O)Nc1ccc(-c2cc3ccccc3o2)cc1
i	>57	c1ccc(Nc2nn[nH]n2)cc1
i	i	O=C(Nc1ccc2oc(=O)ccc2c1)c1ccco1
.	>25.6	N#CCCSCc1ccc(OCC(=O)O)cc1
i	>57	CCn1cc(Br)c(C(=O)NCc2ccco2)n1
i	>57	COc1ccc(CCNC(=O)Cn2cnc3c(nnn3Cc3ccccc3F)c2=O)cc1OC
i	>57	O=C(N1CCOCC1)C1(c2ccccc2)CCCCC1
i	.	O=C(C(Cc1ccccc1)N1C(=O)C2C3C=CC(C3)C2C1=O)N1CCCCC1 (centres undefined)
i	.	Cc1nc2ccccn2c1/C(O)=C1\C(=O)C(=O)N(CCCN(C)C)C1c1ccc(Cl)cc1 (centres undefined)

Part of the list above, field by field.
CCOc1cc2oc(=O)c3c(c2cc1Cl)CCC3
  YjeE inh: i
  Bst PK mod: >57

CCOC(=O)C1CCN(C(=O)c2n[nH]c(=O)c3ccccc23)CC1
  YjeE inh: i
  Bst PK mod: >57

Remaining list, next part
YjeE inh	Bst PK mod	Molecule
i	>57	Cn1c(SCC(=O)NCCN2C(=O)CSC2=O)nc2ccccc2c1=O
i	>57	Cc1cc(C)nc(SCc2cccc(C(=O)O)c2)n1
i	.	Cc1cc(OCCOCCN2CCCC2)ccc1C(C)C
i	.	CCOC(=O)C1CCCCN1C(=O)CCc1c(C)nc2cc(-c3ccccc3)nn2c1C (centres undefined)
i	>11.4	CCOC(=O)c1nc(-c2ccccc2)oc1N(C)C
i	.	CCC1(N(C(C)=O)c2ccc(OC)cc2)C(=O)c2ccccc2C1=O
i	.	CC1(C(=O)NCc2ccccn2)C=CCN1C(=O)c1ccccc1 (centres undefined)
.	>25.6	C/C(=N\O)C(=O)NCCCn1ccnc1
i	>57	CC(C)CCn1c(CN2CCN(Cc3ccccc3)CC2)nc2c1c(=O)[nH]c(=O)n2C
i	>57	Cc1cc(C)nc(/N=C2/NC(=O)CS2)n1
i	.	c1ncc(-c2ccc3c(c2)OCO3)c(NCCc2cnc[nH]2)n1
i	>57	O=C(O)C1CCCN1S(=O)(=O)c1ccc2c(c1)CCC2 (centres undefined)
i	>57	CCOc1ccc(CNC(=O)C2CCCN(S(C)(=O)=O)C2)cc1OC (centres undefined)
i	.	CNc1cc(OC)c(C(=O)N[C@@H]2CCN(Cc3ccccc3)[C@H]2C)cc1Cl
i	.	Cc1ccc(C[C@H](Cc2nc3ccccc3[nH]2)c2nc3ccccc3[nH]2)cc1
i	.	Cc1cc2c(cc1S(N)(=O)=O)S(=O)(=O)CCC2
i	>57	COc1ccccc1Nc1ncccc1C(=O)O
i	.	O[C@@H](c1cc(C(F)(F)F)nc2c(Cl)cc(Cl)cc12)[C@@H]1CCCCN1
i	>57	CCN(CCCNC(=O)C1CCC(=O)N1C1CCCC1)c1cccc(C)c1 (centres undefined)
i	>57	CCN(C(=O)CSc1nncs1)c1c(N)n(Cc2ccccc2)c(=O)[nH]c1=O
i	.	O=C(c1ccc2c(c1)[nH]c(=S)n1c3ccccc3nc21)N1CCN(c2ncccn2)CC1
i	>57	O=C(O)CSCc1cnn(-c2ccccc2)c1-n1cccc1
i	>57	COc1ccc(-c2nnc3n2N=C(c2ccccc2)CS3)cc1OC
i	.	CCOC(=O)C1C(=O)CC(C)(O)C(C(=O)OCC)C1/C=C/c1ccccc1 (centres undefined)
i	>57	CCc1ccc(N/C(SCc2cccc(F)c2)=C(/C#N)C(=O)NCc2ccco2)cc1
i	>57	O=C(CN1C(=O)CCS(=O)(=O)c2ccccc21)Nc1cccc(Cl)c1
i	>57	COc1cccc(NC(=O)CN(c2ccc(C)cc2)S(=O)(=O)c2c(C)nn(C)c2C)c1
i	>57	COCc1c(C(=O)OCC(=O)N2c3ccccc3NC(=O)C2(C)C)oc2ccccc12
i	.	NC1CCN(c2cccc(Cl)n2)CC1
i	>57	CCOc1ccc(NC(=O)C2CC(=O)N(c3cc(C)cc(C)c3)C2)cc1 (centres undefined)
i	>57	Cc1cc(C)nc(NCCCc2ccccc2)n1
i	>57	Cn1c(=O)c2c(nc(CN3CCc4ccccc4C3)n2CC(=O)c2ccccc2)n(C)c1=O
i	>57	CC(C)CC(NC(=O)C1CCC(C)CC1)C(=O)Nc1cccnc1 (centres undefined)
i	>57	O=C(NC1CCCCC1)N1CCCC(c2nc3ccccc3[nH]2)C1 (centres undefined)
i	>57	CC(=O)Nc1nc2c(c3c1c(=O)oc1ccccc13)CCCCC2
i	>57	Cc1ccc(Cn2ncc3c(N4CCCC4)ncnc32)cc1
i	>57	COc1ccccc1C(=O)n1nc(-c2ccco2)nc1N
i	>57	COc1ccc(CCNC(=O)CSc2nnc(-c3cccc(F)c3)o2)cc1OC
i	>57	c1ccc(Cn2nnc3c(N4CCc5ccccc5C4)ncnc32)cc1
i	>57	COc1ccc(CNC(=O)C2CCNCC2)cc1
i	>57	Cc1nnc(SCC(=O)NCCN2C(=O)CSC2=O)s1
i	>57	Cn1cccc1Cc1nnc(SCC(=O)N2CCN(c3ccccc3)CC2)n1-c1ccc(F)cc1
i	>57	CCOC(=O)c1c(C)[nH]c(C)c1-c1ccccc1OC
.	>25.6	COc1ccccc1C(CC(=O)Nc1nccs1)c1ccco1 (centres undefined)
i	>57	CC(=O)NC1=NC(=O)/C(=C/N2CCOCC2)S1
i	>57	CCSc1nc2ccccc2n1CC(N)=O
i	.	Nc1ccccc1S[C@@H](C[N+](=O)[O-])c1ccc2c(c1)OCO2
i	>57	Cc1ccc(-c2nnc(SCC(=O)Nc3ccc4c(c3)OCCO4)n2N)cc1
i	>57	CC(=O)c1cccc(NC(=O)N2CCCC2C(=O)NCc2ccc(C)cc2)c1 (centres undefined)
i	>57	O=C(Nc1cccnc1)c1cnc2ccccc2n1

(list continues)
YjeE inh	Bst PK mod	Molecule
i	>57	CCN1CCN(S(=O)(=O)c2ccc(OC)c(Br)c2)CC1
i	.	Oc1ccccc1-c1nnc(COc2ccc(Cl)cc2Cl)o1
i	>57	CCCCn1c(SCC(=O)NC(=O)NCc2ccco2)nc2cc(S(N)(=O)=O)ccc21
i	.	CC1CCCCC1N=CC1=C(O)CC(C)(C)CC1=O (centres undefined)
i	.	COc1ccccc1Nc1nnc(SCC(=O)N2CCCC2=O)s1
i	>57	O=C(NCc1ccco1)Oc1ccccc1
i	.	C[C@@H]1C(=O)O[C@@H]2C[C@@]34[C@H]5C[C@@H](C(C)(C)C)[C@@]36[C@@H](OC(=O)[C@@H]6O)O[C@]4(C(=O)O5)[C@@]12O
i	>57	CCOC(=O)c1nnc(-c2ccccc2)o1
i	>57	CC(=O)N1CCc2cc(S(=O)(=O)NCCC(=O)N3CCN(Cc4ccccc4)CC3)ccc21
i	>57	CC1Cc2cc(/C(O)=C3/C(=O)C(=O)N(CC4CCCO4)C3c3ccco3)ccc2O1 (centres undefined)
i	5.62*	COc1cccc(C(=O)/C=C/Nc2cc(C)ccc2O)c1
i	.	COc1cccc(C(C#N)N2CCCCC2)c1O (centres undefined)
i	>57	CCOCC(=O)Nc1ccc2c(c1)OCCO2
i	>57	CCCN(CCO)Cc1cccc(Cl)c1
i	>57	CCNC(=O)NC(=O)C(C)SCc1ccccc1C (centres undefined)
i	>57	COc1cc(NS(=O)(=O)c2ccc(NC(=O)C3CCCO3)cc2)nc(OC)n1 (centres undefined)
i	>57	O=C(N1CCOCC1)C12CCC3CC(CC(C3)C1)C2
.	>25.6	O=C(NCCN1CCCCC1)c1ccc(=O)oc1
i	>57	CCc1ccccc1-n1c(-c2ccncc2)n[nH]c1=S
i	>57	CCCn1c(=O)c(C(=O)Nc2ccccc2C(=O)OCC)c(O)c2ccccc21
i	>57	Cn1nnnc1SCCOc1ccc(C#N)cc1
.	>25.6	Cc1nnc(SCC(=O)N2CCOCC2)c2ccccc12
i	.	O=C(CC(c1ccccc1)c1ccccc1)NCCO
i	>57	COc1cc(C2CC(=O)Nc3ccccc3S2)cc(OC)c1OC (centres undefined)
i	.	O=C(Nc1ccc(-c2noc(COc3ccccc3Cl)n2)cc1)c1ccco1
i	>57	O=C1CCCC2=C1C(c1cccs1)n1nc(SCc3ccccc3)nc1N2 (centres undefined)
i	.	Cn1cccc1C(=O)N1CCC2(CC1)CCN(c1ncccn1)CC2
